Screening results as filed in PubChem BioAssay.
VDR inh: vitamin D3 receptor (human) inhibition. VDR-SRC2-3 peptide fluorescence polarization, 2 h. Potency, µM, for inactives: max response, negative = inhibition, hits mostly inhibitors. AID 504847. 400,000 compounds, 0.93% hits; active means well fitted inhibition curve with a large enough effect; inconclusive means small, poorly fitted or top-dose-only effect, or another doubt; inactive means no such curve, though single readings can be large or run the other way; further: series mostly up to about 120 µM
Target sequence (P11473 whole entry, looked up): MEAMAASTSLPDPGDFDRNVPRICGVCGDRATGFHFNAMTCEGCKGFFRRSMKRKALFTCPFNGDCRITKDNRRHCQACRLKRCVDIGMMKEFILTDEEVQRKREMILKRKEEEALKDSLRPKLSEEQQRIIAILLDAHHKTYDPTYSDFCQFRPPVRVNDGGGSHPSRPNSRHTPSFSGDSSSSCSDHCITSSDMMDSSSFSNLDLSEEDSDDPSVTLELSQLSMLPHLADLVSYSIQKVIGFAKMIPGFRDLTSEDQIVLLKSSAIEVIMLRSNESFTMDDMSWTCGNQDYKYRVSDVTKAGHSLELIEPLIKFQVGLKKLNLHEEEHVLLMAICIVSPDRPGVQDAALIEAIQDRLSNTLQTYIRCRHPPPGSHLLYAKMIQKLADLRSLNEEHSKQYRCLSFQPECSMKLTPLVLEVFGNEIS
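Reagent solutions, kept cold and dark, are dispensed first; compounds are then pinned in at 23 nl, plates briefly spun, and incubated 2 h at ambient temperature. Inhibition of VDR–SRC2-3 peptide binding is read by fluorescence polarization.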
The depositor's hits bear a star; ? = inconclusive; & = joins results of further samples; [ ] = another dose, or the depositor's remark. On the % scale 0 is the no-effect control and ±100 the full control effect; potency means the concentration at half of the fitted maximal effect. These rows are one share of the data; the hit share may differ from the screen's.

VDR inh	molecule
6.9%	Cc1ccc(S(=O)(=O)c2n[nH]n3c2nc(=O)c2ccccc23)cc1
-1.7%	O=[N+]([O-])c1cc(S(=O)(=O)NCCN2CCOCC2)ccc1Sc1nnnn1-c1ccccc1
10.9%	C=CCNC(=O)c1ccccc1NC(=O)c1ccccc1
11.8%	CCCN1CCN(C(=O)Nc2ccc(C(=O)OCC)cc2)CC1
11.0%	COc1ccccc1OCCNC(=O)c1cccc(S(=O)(=O)NCc2ccccc2)c1
6.7%	CCN(Cc1ccccc1)C(=O)Cn1c(=O)oc2cc(S(=O)(=O)N3CCCCCC3)ccc21
-0.8%	CS(=O)(=O)Cc1cc(Sc2ccccc2)nc(-c2ccncc2)n1
0.9%	Cc1ccc(S(=O)(=O)N(C)c2cc(S(N)(=O)=O)c(C)cc2C)cc1
1.3%	COc1ccc(C(=O)NCc2cc(C(C)C)no2)cc1OC1CCN(C(C)C)CC1
-0.2%	C(=N\N(c1ccccc1)c1ccccc1)/c1ccc(N2CCOCC2)s1
8.1%	CC1(C)C(=O)Nc2ccccc2N1C(=O)Cn1ncc(Cl)c(Cl)c1=O
?	CCOC(=O)C1=CN(Cc2ccccc2)CCC1=O
12.7%	CC(C)CNc1oc(-c2ccccc2Cl)nc1C#N
-24.4%	COc1ccc(-n2nc3c(N4CCC(C(=O)NCCc5ccco5)CC4)nnc(C)c3c2C)cc1
-7.7%	COc1cccc(/C=C/c2ccncc2)c1OC
0.0%	COc1cc(OC)cc(-c2oc(=O)c3cc(OC)c(OC)cc3c2C(F)(F)F)c1
12.4%	CCN1CCN(C(=O)c2cc(S(=O)(=O)N3CCCCC3)ccc2Cl)CC1
-0.1%	COc1cccc(N2CC(C(=O)OC(C)C(=O)c3ccccc3)CC2=O)c1 (stereo unspecified)
3.7%	O=C(NCC1CCCO1)c1c[nH]c2ccc(S(=O)(=O)Nc3cccc(C(F)(F)F)c3)cc2c1=O (stereo unspecified)
-1.6%	Cc1cccc(C(=O)OC(C)C(=O)NC2CCCc3ccccc32)c1O (stereo unspecified)
8.2%	CC(C)NC(=O)CN1C(=O)c2ccccc2S1(=O)=O
-7.8%	C/C(=N\NC(=O)COc1ccccc1)c1ccc(O)cc1
-11.3%	COc1ccc(OC)c(S(=O)(=O)N2CCCCC2C(=O)N2CCN(c3ccccn3)CC2)c1 (stereo unspecified)
-5.6%	C1CCc2nnc(C3CC3)n2CC1
-16.9%	CCOC(=O)C(=O)c1c(-c2ccccc2)nc2ccccn12
-10.6%	CC1(C)Cc2c(ccc3ccccc23)C2=C(C(=O)N3CCCC3)C(=O)C(=O)N21
-13.0%	CCCCCSc1nc2c(c(=O)[nH]c(=O)n2C)n1C(C)C
4.0%	Cc1nc(C)c(-c2ccc(SCC(=O)Nc3ccc(Cl)c(Cl)c3)nn2)s1
-9.4%	CCOC(=O)N1CCN(C(=O)c2cc(COc3ccc(OC)cc3Cl)on2)CC1
7.6%	COc1ccc(C(C(=O)NC2CCCC2)N(C(=O)c2snc(C(N)=O)c2N)c2ccccc2OC)cc1OC (stereo unspecified)
3.2%	Cc1cc(C)c2nc(N(CCN(C)C)C(=O)c3ccc4ccccc4c3)sc2c1
-5.8%	O=[N+]([O-])c1ccc2[nH]ncc2c1
-3.1%&17.8%	C/C(N)=C(/C#N)C(=O)CSc1nc(C2CCCCC2)n(-c2ccccc2)n1
-7.3%	CCOC(=O)/C(=N\Nc1ccccc1Cl)N(C)C1CCCCC1
-9.2%	CN(CCOc1ccccc1)C(=O)c1ccc2c(c1)OCO2
-12.1%	COc1ccc(F)cc1S(=O)(=O)NCC1CCCO1 (stereo unspecified)
-10.7%&5.7%	CCOC(=O)Cn1nc(C)c(NC(=O)COc2ccccc2)c1C
-7.7%	CCN(CC)CCCNC(=S)N1CCN(c2nc3ccccc3n2CC)CC1
-2.3%	Cn1c(COc2nnc(-c3ccc(Cl)cc3)c3ccccc23)nc2ccccc21
2.1%	CCC(C)(C)n1nnnc1C(c1ccc(C)cc1)N1CCSCC1 (stereo unspecified)
-12.0%	COCCn1c(SCC(=O)Nc2cccc(C)c2C)nc2c(oc3ccccc32)c1=O
0.0%	CCOC(=O)N1CCC2(CC1)C(C#N)=C(N)OC1=C2C(=O)CC(C)(C)C1
8.7%	Nc1c(C(=O)NCc2ccco2)nnn1Cc1ccccc1
-3.7%	CCOC(=O)C1=C(CS(=O)(=O)c2ccccc2)NC(=O)NC1c1ccccc1OCC (stereo unspecified)
12.7%	O=S(=O)(NCCCN1CCOCC1)c1ccc(Cl)cc1
4.0%	O=C(O)C1(c2ccccc2)CCN(S(=O)(=O)c2ccc(Cl)s2)CC1
?	COC1=C(N)C(=O)c2nc(C)ccc2C1=O
-23.0%	CCCc1c(O)nc(SC2CC(=O)N(c3ccc(C)c(Cl)c3)C2=O)[nH]c1=O (stereo unspecified)
5.5%	O=C(CN1CCCC(O)C1)N1c2ccccc2Sc2ccc(C(F)(F)F)cc21 (stereo unspecified)
-9.1%	CCOC(=O)C1=C(c2ccccc2)N=c2s/c(=C\c3ccc(O)cc3)c(=O)n2C1c1cccs1 (stereo unspecified)

(continued)
VDR inh	molecule
-3.8%	Brc1ccc(CSc2nccn2-c2ccccc2)cc1
8.9%	Cc1ccc(NC(=O)CN2CCN(Cc3ccccc3)CC2)cc1Cl
1.8%	Cc1ccc(CNC(=O)C(OC(=O)c2cccs2)C(C)C)cc1 (stereo unspecified)
-16.7%	CN1CCN(c2ccc(NC(=O)c3ccc(C(F)(F)F)cc3)cn2)CC1
6.0%	CC(=O)Nc1ccc(S(=O)(=O)N[C@@H](C)C(=O)NC2CCCc3ccccc32)cc1 (stereo partly specified)
-3.8%	Cc1ccccc1N1CCN(Cc2c[nH]c3ccccc23)CC1
-5.0%	COc1ccc(CN=C(NS(=O)(=O)c2cccs2)SC)cc1
-12.9%	Cc1ccc(-c2nc(C3CCCN(S(=O)(=O)c4ccc(C)cc4)C3)no2)cc1 (stereo unspecified)
3.2%	O=C(Cc1ccccc1[N+](=O)[O-])NCc1ccc(Cl)cc1
-8.8%	CN(C)C(=O)c1ccc(=O)n(Cc2ccc(Cl)cc2Cl)c1
8.9%	CCNC(=O)Cc1ccc(NC(=O)N2CCCCc3ccccc32)cc1
-19.5%	FC(F)(F)c1cccc(NC(=S)N2CCCCCC2)c1
-11.2%	O=C(Nc1cccc(-n2cccn2)c1)C1CCCN(Cc2cccc(F)c2F)C1 (stereo unspecified)
2.0%	CCc1ccc(S(=O)(=O)c2nnn3c2nc(NC2CCCCCC2)c2sccc23)cc1
-18.9%	CCc1nn(C(C)C(=O)NC2CCCCCC2)c(=O)c2cc3occc3n12 (stereo unspecified)
-5.6%	Cc1cc(C)cc(NC(=O)C(Sc2nnc(C)c(=O)[nH]2)c2ccccc2)c1 (stereo unspecified)
1.6%	C=CCn1c(=O)c2ccc(C(=O)NCc3ccccc3)cc2n(Cc2ccccc2Cl)c1=O
15.4%	Cc1ccccc1NC(=O)Cn1nnc(-c2ccc(CN3CCC(C)CC3)cc2)n1
8.2%	COc1ccccc1NS(=O)(=O)c1cccc(NC(=S)NCCN2CCOCC2)c1
3.9%	CC(C)N(C(=O)CSc1nnc(NC(=O)c2ccco2)s1)C(C)C
-14.1%	O=C(NCc1ccc(Cl)cc1)C(=O)NCC1CCCN1S(=O)(=O)c1cccs1 (stereo unspecified)
-2.4%	C/C(=N\NC(=O)CCc1ccccc1)C1C(=O)c2ccccc2C1=O
-8.2%	O=C(Nc1c(C(=O)Nc2cccc(C(F)(F)F)c2)oc2ccccc12)c1cc(=O)c2ccccc2o1
10.6%	COc1ccc(CCNC(=O)C2CCN(S(=O)(=O)c3ccc(OC)cc3)CC2)cc1
6.6%	O=C(Nc1ccccc1F)c1cc(S(=O)(=O)N2CCCCC2)cs1
5.8%	CCN(CC)CCN1C(=O)c2ccccc2NC1c1cccc(F)c1 (stereo unspecified)
0.9%	C=CCn1c(SCc2ccc(C(=O)OC)cc2)nnc1-c1sc(N)nc1C
26.3%	CCOCCCNC(=O)C1CC(=O)N(CCc2ccccc2)C1 (stereo unspecified)
-4.9%	Cc1csc2ncc(C(=O)Nc3ccc4c(c3)OCCO4)c(=O)n12
13.3%	COc1cccc(/C=C/c2nc(C#N)c(N3CCC(C(N)=O)CC3)o2)c1
9.3%	CCN(CC(=O)Nc1c(F)cccc1F)C(=O)CNC(=O)c1sc2ccccc2c1Cl
-5.4%	CCOC(=O)c1ccc(N2C(=O)c3n[nH]c(-c4cccs4)c3C2c2ccc(CC)cc2)cc1 (stereo unspecified)
-0.3%	O=C(CSc1ccc2c(c1)OCCO2)NCc1ccccc1
-3.3%	C#CCNC(=O)C1=C[C@H](C)C[C@H](OCc2ccc(CO)cc2)O1
?	Cc1cccc(N(C)Cc2nnc(-c3cccc(Br)c3)o2)c1
-23.0%	CCN(CC)CCNc1cc(C)c(C#N)c2nc3ccccc3n12
-0.1%	O=C(c1cnccn1)N1CCN(S(=O)(=O)c2ccc3ccccc3c2)CC1
?	CCCCN1CC(=O)N2[C@@H]3c4cc(OC)ccc4OC[C@@H]3[C@H](C(=O)OCC)[C@]2(C)C1=O
-16.8%	Cc1cccc(CCNC(=O)CCc2c(C)nc3c(-c4ccc(F)cc4)c(C)nn3c2C)c1
-8.0%	CC(=O)c1c(C)[nH]c(C(=O)NCCc2cccc(C)c2)c1C
7.4%	COc1ccccc1CNC(=O)CN1C(=O)N(C)C2(CCCCC2)C1=O
-4.7%	COc1ccc(C2C3=C(CCCC3=O)N(CC(=O)O)C3=C2C(=O)CCC3)cc1Cl
10.6%	COC(=O)c1ccccc1NC(=O)NCc1ccc2c(c1)CCN2C(=O)c1ccccc1
-6.1%&11.1%	Cn1nc(C(=O)NCc2ccccc2Cl)c2c1-c1ccccc1S(=O)(=O)C2
?	CCCCCCCCCCCCCCSCC(=O)O
4.0%	Cc1nc2c(ncn2-c2ccccc2)c(=O)n1NC(=O)CN1CCN(C)CC1
-3.9%	O=C(O)CCCCCN1C(=O)/C(=C/c2cn(-c3ccccc3)nc2-c2cccs2)SC1=S
-6.4%	COc1ccc(C(=O)Nc2ccc(C3CC3(Cl)Cl)cc2)cc1 (stereo unspecified)
10.1%	Cc1cc(=O)n2nc(N3CCC(C(=O)NCCCOC(C)C)CC3)sc2n1
-10.5%	CCOC(=O)/C(C#N)=C/c1c(N2CCN(CC)CC2)nc2c(C)cccn2c1=O

Further structures follow:
VDR inh	molecule
-6.8%	CCC(=O)N1CCc2cc(Br)cc(S(=O)(=O)CCC(=O)NCCc3ccccc3Cl)c21
-2.6%	COc1cccc2c(=O)cc(C)n(CC(=O)Nc3ccc(Br)cc3)c12
-13.9%	CC(C)CCSc1nnc2n(-c3ccccc3)c(=O)c3c4c(sc3n12)CC(C)CC4 (stereo unspecified)
39.2%	O=C(CC(Sc1ccccc1)c1cccs1)c1ccco1 (stereo unspecified)
-4.7%	O=C1c2ccccc2CCc2ccc(Br)cc21
-22.0%	CCc1cc2c(=O)c(-c3cnn(-c4ccccc4)c3)c(C)oc2cc1OCC(=O)Nc1cccc(C)c1
5.5%	O=S1(=O)N[C@@H](Cc2ccccc2)COc2cc(Br)ccc21
5.6%	O=C(c1ccco1)N1CCN(C(=O)c2cc(-c3ccncc3)nc3ccc(Br)cc23)CC1
19.9%	COc1ccc(N/C(N)=N/c2nc(CSc3ccc(Cl)cc3)cc(=O)[nH]2)cc1
-9.6%	CCOC(=O)Cn1nc(-c2ccccc2)c2cnc3ccc(C)cc3c21
-15.1%	NC(=O)CC(NC(=O)c1ccc(Br)cc1)c1ccc(N2CCN(c3ccccc3)CC2)c([N+](=O)[O-])c1 (stereo unspecified)
5.8%	Cc1ccccc1C(OCC(O)CN1CCN(CCO)CC1)c1ccccc1 (stereo unspecified)
-6.8%	CCc1cccc(-n2c(=O)c3cccnc3n2CC(=O)Nc2c(C)cc(C)cc2C)c1
-0.3%	COCCN(C(=O)CSc1nc2ccccc2c(=O)n1C(C)COC)c1c(N)n(Cc2ccccc2)c(=O)[nH]c1=O (stereo unspecified)
1.1%	CCCn1c(=O)c(C(=O)Nc2ncccc2C)c(O)c2ccccc21
6.5%	O=C(Nc1ccc(Nc2ccccc2)cc1)c1ccc(Cl)c([N+](=O)[O-])c1
-8.2%	O=C(NC12CC3CC(CC(C3)C1)C2)N1CCCC(CO)C1 (stereo unspecified)
-11.6%	CN(C(=O)c1cccc(NC(=O)Cc2ccc(NC(=O)C3CCN(C(=O)CCc4ccccc4)CC3)cc2)c1)C1CC1
5.7%	CCN(CC(=O)Nc1ccc(NC(C)=O)cc1)C(=O)CCCOc1cccc(C)c1
-26.2%	O=C(O)c1cccc(N/N=C/c2cc(Br)cc(Br)c2O)c1
32.5%[activator]	CCCCNc1c([N+](=O)[O-])ncn1C
-5.5%	COc1ccc(Br)cc1CSC(=N)N
7.0%	COc1ccc(N(CC(=O)NCCSCc2ccc(C)cc2)S(=O)(=O)c2ccccc2)cc1
20.3%	CS(=O)(=O)N1CCN(C(=O)c2ccc(F)cc2)CC1

Molecules from the list above containing bromine, in the order listed:
VDR inh	molecule
-3.8%	Brc1ccc(CSc2nccn2-c2ccccc2)cc1
?	Cc1cccc(N(C)Cc2nnc(-c3cccc(Br)c3)o2)c1
-6.8%	CCC(=O)N1CCc2cc(Br)cc(S(=O)(=O)CCC(=O)NCCc3ccccc3Cl)c21
-2.6%	COc1cccc2c(=O)cc(C)n(CC(=O)Nc3ccc(Br)cc3)c12
-4.7%	O=C1c2ccccc2CCc2ccc(Br)cc21
5.5%	O=S1(=O)N[C@@H](Cc2ccccc2)COc2cc(Br)ccc21
5.6%	O=C(c1ccco1)N1CCN(C(=O)c2cc(-c3ccncc3)nc3ccc(Br)cc23)CC1
-15.1%	NC(=O)CC(NC(=O)c1ccc(Br)cc1)c1ccc(N2CCN(c3ccccc3)CC2)c([N+](=O)[O-])c1 (stereo unspecified)
-26.2%	O=C(O)c1cccc(N/N=C/c2cc(Br)cc(Br)c2O)c1
-5.5%	COc1ccc(Br)cc1CSC(=N)N
